Cruzain inh noDet: blocks cruzain activity in detergent-free assay; P25779; purified cruzain, Z-FR-AMC fluorescence, no detergent; Potency, µM, without a hit: max response, negative = inhibition, usual class: inhibitors; hit rate 2.3% among 200,000; AID 1476;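 also: plate controls were enzyme without inhibitor for no effect and buffer without enzyme for full effect; nearly all actives have a fitted effect of over 40% in size; top concentration of the series not given in the record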
Target sequence (P25779 123-467 limits assumed): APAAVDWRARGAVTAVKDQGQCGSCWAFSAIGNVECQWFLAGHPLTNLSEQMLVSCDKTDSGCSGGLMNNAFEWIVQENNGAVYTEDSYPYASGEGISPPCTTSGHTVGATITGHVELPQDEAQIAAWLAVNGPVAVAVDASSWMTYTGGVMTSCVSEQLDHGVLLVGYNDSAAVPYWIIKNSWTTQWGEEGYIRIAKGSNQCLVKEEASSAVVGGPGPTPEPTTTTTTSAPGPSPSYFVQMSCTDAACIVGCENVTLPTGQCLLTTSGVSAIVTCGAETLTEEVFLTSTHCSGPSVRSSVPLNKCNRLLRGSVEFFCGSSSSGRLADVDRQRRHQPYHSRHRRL
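Detergent-free condition (0.00005% Triton X-100) in acetate buffer pH 5.5 with DTT. 1.5 nM enzyme and compound were pre-mixed 15 min, then 2 uM Z-FR-AMC substrate added; reaction progress from fluorescence change between first and third reads (60 s).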
MARV entry inh: Marburg virus entry inhibition; Marburg virus pseudotyped entry inhibition, cell reporter; control for the full effect not named in the record; about a third of the inactives were read at about 46 µM; Potency, µM (top dose mostly 37.8 µM), for the others: at the top dose activity change, negative = inhibition, usual class: inhibitors; hit rate 1.8% among 300,000; AID 540276; active = well fitted inhibition curve with a large enough effect; inconclusive = small, poorly fitted or top-dose-only effect, or effect the other way; inactive = flat fitted curve, though single readings scatter; tested in HEK293 cells; about a fifth of its hits are not listed in these tables; also: % is scaled to controls: 0 for no effect and ±100 for the full control effect; luciferase read-out
SARS PLpro yeast: inhibitors of SARS-CoV papain-like protease in yeast | S. cerevisiae expressing SARS-CoV PLpro, growth rescue; control for the full effect not named in the record | Potency, µM (highest dose often 32.9 µM), for inactives: at the top dose activity, positive = growth rescue | hit rate 0.19% among 330,000 | AID 485353; active means well fitted rising curve with a large enough effect; inconclusive means small, poorly fitted or top-dose-only effect; inactive means no such curve, though single readings can be large or run the other way; also: 0% is about no effect; nearly all actives have a fitted effect of over 55% in size; growth read by luminescence after 48 h
RE007 growth inh: less growth of the S. pombe RE007 Vpr strain; S. pombe RE007 Vpr strain, BacTiter-Glo ATP luminescence, 24 h; control for the full effect not named in the record; hit rate 0.21% among 360,000; Potency, µM (doses to about 92.2 µM), for inactives: top-dose activity change, negative = less growth; active = well fitted falling curve with a large enough effect; inconclusive = small, poorly fitted or top-dose-only effect; inactive = no such curve, though single readings can be large or run the other way;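 also: % is scaled to controls: 0 for no effect and ±100 for the full control effect; nearly all actives have a fitted effect of over 50% in size; the assay follows cell death caused by Vpr and the record does not say whether a fall means rescue or toxicity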
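Fission yeast RE007 carrying one integrated HIV-1 vpr copy, seeded at OD 0.01 in PMG+AL medium with 23 nL pinned compound. Grown 24 h at 30 degrees; viability read by BacTiter-Glo luminescence after 5 min.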
LASV entry inh: blocks Lassa virus binding to or entry into cells | Lassa virus pseudotype entry inhibition, cell reporter; control for the full effect not named in the record | Potency, µM (top dose mostly 37.9 µM), without a hit: at the top dose activity change, negative = inhibition, actives largely listed as inhibitors | hit rate 1.2% among 300,000 | AID 540256; active means well fitted inhibition curve with a large enough effect; inconclusive means small, poorly fitted or top-dose-only effect, or effect the other way; inactive means flat fitted curve, though single readings scatter; tested in HEK293 cells; also: % is scaled to controls: 0 for no effect and ±100 for the full control effect; nearly all actives have a fitted effect of over 50% in size; luciferase read-out
2A StopGo: FMDV 2A StopGo reporter, luciferase signal | human cells with a luciferase reporter of 2A StopGo recoding; control for the full effect not named in the record | Potency, µM (doses to about 57.9 µM), for the others: at the highest dose signal change, negative = less light | hit rate 1.2% among 410,000; active = well fitted falling curve with a large enough effect; inconclusive = small, poorly fitted or top-dose-only effect; inactive = no such curve, though single readings can be large or run the other way; tested in HEK293T cells; also: % is scaled to controls: 0 for no effect and ±100 for the full control effect; nearly all actives have a fitted effect of over 45% in size; luciferase light after 4 h
Cruzain inh Det: cruzain (T. cruzi) inhibition with detergent; P25779; purified cruzain, Z-FR-AMC fluorescence, 0.01% Triton; Potency, µM, for inactives: max response, negative = inhibition, usual class: inhibitors; hit rate 0.43% among 200,000; AID 1478;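 also: plate controls were neutral wells for no effect and buffer without enzyme for full effect; nearly all actives have a fitted effect of over 40% in size; top concentration of the series not given in the record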
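Sodium acetate buffer (100 mM, pH 5.5) containing 5 mM DTT and 0.01% Triton X-100 hosted 1.5 nM cruzain and test compound for 15 min at room temperature. Cleavage of 2 uM Z-FR-AMC was then tracked by fluorescence.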
NS1 function inh: influenza NS1 inhibition. hit rate 0.4% among 270,000. Potency, µM (highest dose often 46.1 µM), inactives show top-dose activity, positive = more growth. S. cerevisiae slowed by influenza A NS1, growth recovery by OD600; active means well fitted rising curve with a large enough effect; inconclusive means small, poorly fitted or top-dose-only effect; inactive means no such curve, though single readings can be large or run the other way; also: nearly all actives have a fitted effect of over 50% in size
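A cell-based growth assay was used: compounds that relieve NS1-induced slow growth of budding yeast raise OD600. Assay medium was yeast nitrogen base with ammonium sulphate and -URA supplement, pH 6.0, with 2% galactose.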
The depositor's hits bear a star; ? = inconclusive; nt = no result given; & = joins results of further samples; [ ] = remark or other dose. Unless noted, calls follow the shape of the dose curve; as a rule, active = well fitted curve in the direction sought with a large enough effect; inconclusive = small, poorly fitted or top-dose-only effect, or another doubt; inactive = no such curve, though single readings can be large; an effect the other way counts as inactive or inconclusive. Potency is read from the fitted curve at half-maximal effect.

SMILES,Cruzain inh noDet,MARV entry inh,SARS PLpro yeast,RE007 growth inh,LASV entry inh,2A StopGo,Cruzain inh Det,NS1 function inh
CCOc1ccc(/C=C/C(=O)Nc2ccccc2C(F)(F)F)cc1,-6%,?,4%,8%,?,50%[activator],-3.5%,-4%
O=C(O)c1ccccc1SC1CC(=O)N(c2ccccc2)C1=O (stereo not drawn),1%,-13%,-80%,10µM*,2%,-10%,0.0%,-43%
CC(C)CC(NC(=O)c1cccc(Cl)c1)C(=O)O (stereo not drawn),nt,4%[46.1 µM],-6%,-7%,18%[46.1 µM],-2%,nt,13%
NC(=O)c1ccc(NC(=O)CCCc2nc(-c3ccccc3Cl)no2)cc1,0%,?,-1%,10%,-12%,22%,2.5%,-6%
O=C(NC1CCCc2ccccc21)c1ccccc1OC(F)F (stereo not drawn),nt,-22%[46.1 µM],-3%,-10%,-17%,32%[activator],nt,-11%
CCCCNc1nc(N(C)c2ccccc2)nc(-n2ccnc2)n1,2%,?,-23%,-2%,?,?,-7.9%,-151%
O=c1oc2ccc3ccccc3c2cc1-c1nnc(-c2cccs2)o1,-5%,-30%,7%,-18%,?,13%,7.2%,2%
CCCSC1=NC2(CCN(C(=O)NC3CCCCC3)CC2)N=C1c1ccc(C)cc1,-7%,nt,nt,nt,7%[46.1 µM],4%,-1.6%,nt
N#Cc1c(-n2cccc2/C=N/O)sc2c1CCCC2,2%,17%,-5%,-8%,1%,-20%,-1.0%,-56%
Cc1cc(C)nc(-n2ncc3c2CC(c2cccc(Cl)c2)CC3=O)n1 (stereo not drawn),nt,5.6µM*,-5%,-1%,?,-14%,nt,nt
CC(OC(=O)c1ccc2c(=O)n3c(nc2c1)CCCCC3)C(N)=O (stereo not drawn),nt,-21%[46.1 µM],2%,-4%,?,27%,nt,6%
COc1ccc(CCN2C(=O)CN=C2Nc2ccc(F)cc2)cc1OC,nt,-17%[46.1 µM],0%,-9%,-19%,-20%,nt,5%
COc1ccc(N2CCN(c3cc(C)c4ccc(C)cc4n3)CC2)cc1,nt,?,-8%,-15%,?,?,nt,nt
COc1ccc(CNC(=S)Nc2cc(C)cc(C)c2)cc1,6%,-2%[46.1 µM],-3%,-8%,-17%,28%,-2.5%,0%
CCCn1nc2ccccc2c1P(=N)(N1CCOCC1)N1CCOCC1,2%,-5%&-1%,20%,13%,1%,6%,-5.5%,0%
O=C(N/N=C/c1cc([N+](=O)[O-])c(N2CCOCC2)cc1N1CCOCC1)c1cccnc1,nt,?,2%,14%,1%,-13%,nt,nt
O=C(Oc1ccccc1)c1cccc2cccc(C(=O)Oc3ccccc3)c12,nt,nt,1%,15%,nt,?,nt,12%
O=C1CCC(c2ccccc2)(c2ccccc2)CC1,-7%,nt,1%,-1%,nt,-7%,-1.3%,6%&-4%
COc1cccc(/C=C(/C(=O)OCC(=O)NCC2CCCO2)c2ccccc2)c1 (stereo not drawn),nt,-66%[46.1 µM],-2%,-26%,4%[46.1 µM],-5%,nt,nt
O=C(Nc1cccc(F)c1)Nc1ccc2c(c1)C(=O)OC2,nt,4%,0%,4%,22%,22%,nt,?
Cc1ccccc1C(=O)NC1CCN(CC(=O)Nc2ccc(N(C)C)cc2)CC1,nt,nt,6%,-2%,nt,5%,nt,-6%
Cc1ccccc1-c1nc(CS(=O)CC(=O)NCc2ccc3c(c2)OCO3)c(C)o1 (stereo not drawn),nt,nt,6%,-9%,nt,-3%,nt,2%
CC(=O)Nc1cccc(N=NN2CCOCC2)c1,nt,-2%[46.1 µM],1%,6%,?,15%,nt,0%
CCc1nc2ccc(C(=O)N3CCN(c4ccccc4F)CC3)cc2nc1CC,-5%,-23%&-23%[46.1 µM],1%,2%,-17%&-10%[46.1 µM],8%&-6%,0.6%,7%
COc1ccc(-c2cc(=O)c3c(O)cc(O)cc3o2)cc1,-15%&-3%&-8%,nt,nt,-1%[18.4 µM],nt,20%&43%,0.6%&3.5%&2.8%,nt
CC12CCC(C(=O)N3CCc4ccccc43)(CC1=O)C2(C)C (stereo not drawn),-3%,?,-6%,5%,0%,-22%,0.0%,-1%
Cc1ccc(S(=O)(=O)NCC(=O)N2CCCC2C(=O)O)cc1 (stereo not drawn),nt,nt,-3%,19%,nt,-29%,nt,1%
Cc1ccc(-n2c(-c3ccc([N+](=O)[O-])cc3)nc3ccccc3c2=O)cc1,-10%,-30%[46.1 µM],-43%,-3%,14%[46.1 µM],-12%,-5.2%,-6%
CCOc1ccc(NC(=O)C(=O)NCc2ccncc2)cc1,nt,-15%[46.1 µM],0%,8%,nt,4%,nt,-6%
CCOc1ccccc1C(=O)N1CCc2cc(OC)c(OC)cc2C1COc1ccc2c(C)cc(=O)oc2c1 (stereo not drawn),-5%,?,nt,nt,-5%[46.1 µM],-25%,13%,nt
COc1ccccc1NC(=O)CSc1nnc(Cc2cccn2C)n1-c1ccc(F)cc1,?,-7%,4%,-12%,nt,-21%,-3.5%,?
CCCCOc1ccccc1C(=O)N(Cc1ccc(C)o1)C1CCS(=O)(=O)C1 (stereo not drawn),-5%,13%&13%[46.1 µM],-3%,-6%,15%[46.1 µM],-7%&-23%,-4.2%,-7%
CCOc1ccccc1CNC(=O)C1CCN(c2nn3c(=O)cc(C)nc3s2)CC1,nt,nt,16%,-7%,nt,2%,nt,8%
CC(=O)c1ccc(NC(=S)NCCc2ccccn2)cc1,4%,?,14%,-1%,?,54%[activator],-2.0%,4%
CC(Nc1cccc2ccccc12)C(=O)N/N=C/c1ccc([N+](=O)[O-])cc1 (stereo not drawn),?,?,-51%,-7%,-23%,-28%,-8.0%,?
Cc1cccc2sc(N(CCCN(C)C)C(=O)c3ccco3)nc12,nt,?,-1%,-6%,-14%[46.1 µM],-13%,nt,-6%
CCc1ccc(NC(=O)c2ccc(S(=O)(=O)NCc3cccnc3)cc2)cc1,nt,4%[46.1 µM],0%,-12%,-1%[46.1 µM],23%,nt,0%
O=C(COC(=O)c1cc([N+](=O)[O-])ccc1N1CCOCC1)Nc1ccc(Cl)cn1,nt,?,-8%,23%,-3%,-22%,nt,-27%
C=CCOc1ccc(CNc2ccc3[nH]c(=O)[nH]c3c2)cc1OCC,nt,?,2%,-16%,-10%,-13%,nt,-4%
COC(=O)c1c(NC(=O)c2nc(SC)ncc2Cl)sc2c1CCCC2,-15%,24%[46.1 µM],nt,nt,25%[46.1 µM],8%,-1.0%,nt
COc1cc(NC(=O)CC2NCCNC2=O)cc(OC)c1 (stereo not drawn),-4%,13%,-3%,2%,6%,14%,8.0%,3%
O=Cc1ccc(C(=O)OCC(=O)NCc2ccco2)cc1,nt,0%,3%,-17%,15%,-10%,nt,nt
O=C(O)C1Oc2ccccc2C1c1ccccc1 (stereo not drawn),nt,16%[46.1 µM],nt,1%,-16%[46.1 µM],-1%,nt,nt
COc1ccc(/C=C(\NC(=O)c2ccccc2)C(=O)OCC2CCCN3CCCCC23)cc1OC (stereo not drawn),nt,-15%[46.1 µM],2%,-13%,nt,13%,nt,nt
Cc1ccc(-c2nn(CC(=O)Nc3ccc4c(c3)nc3n4CCOC3)c(=O)c3ccccc23)cc1,7%,?,5%,?,-7%,-3%,4.6%,8%
COc1ccc(N(Cc2cc3cc(OC)ccc3[nH]c2=O)C(=O)C2CCCO2)cc1 (stereo not drawn),-12%,12%,9%,-15%,-9%,-19%,-6.1%,-17%
CN(C)C(=O)CSc1ncccc1-c1nc2ccccc2[nH]1,nt,0%,1%,-12%,6%,2%,nt,-5%
COc1ccc(C2=NN(C(=O)CN3CCOCC3)C(c3nc4ccccc4[nH]3)C2)cc1 (stereo not drawn),nt,8%[46.1 µM],-4%,-11%,-23%,36%[activator],nt,nt
CCCCSc1nnc2c(n1)OC(c1ccc(Br)s1)N(C(C)=O)c1ccccc1-2 (stereo not drawn),8%,-14%[46.1 µM],nt,nt,2%[46.1 µM],-23%,-8.5%,nt
Cn1c(CNC(=O)c2ccco2)nnc1SCC(=O)Nc1cccc(Br)c1,-9%,-22%,3%,8%,23%,16%,0.7%,-2%
CCOc1ccc(-c2c(C(=O)N/N=C/c3c[nH]c4ccccc34)nnn2-c2nonc2N)cc1,nt,nt,-3%,15%,nt,-20%,nt,-11%
COc1ccc(OC)c(NC(=O)CCc2c(C)nc3c(-c4ccccc4)c(C)nn3c2C)c1,?,?,nt,nt,-17%[46.1 µM],?,-3.9%,nt
COc1ccccc1NC(=O)C(C)OC(=O)CCC1CCCCC1 (stereo not drawn),nt,-9%,-1%,6%,-25%,-16%,nt,-27%
CN1CCN(Cc2ccc(OC(F)(F)F)cc2)CC1,-1%,21%,-3%,-19%,2%,-8%,1.8%,-2%
Cc1ccc(S(=O)(=O)NCCNC(C)c2ccc(Br)cc2)cc1 (stereo not drawn),nt,?,6%,31%,3%,0%,nt,nt
Cc1c(Nc2ncnc3nc[nH]c23)c(=O)n(-c2ccccc2)n1C,-4%,-39%,-13%,2%,-1%,-7%,-0.5%,-132%
CCOC(=O)C1=C(C)NC(SCC(=O)O)=NC1c1ccccc1 (stereo not drawn),8%,3%&3%,-5%,-4%,9%,-5%,-2.4%,?
O=C(O)c1cc(NS(=O)(=O)c2cccc3nsnc23)cc(C(=O)O)c1,nt,nt,1%,-13%,nt,4%,nt,6%
COc1cc(C(C)=O)ccc1OCC(O)CN1CCN(S(=O)(=O)c2ccccc2)CC1 (stereo not drawn),3%,-5%&-24%,5%,-9%,-1%,-18%,4.9%,-10%
O=C(Nc1ccccc1C(=O)N1CCCCCC1)c1ccc(F)cc1,nt,nt,0%,2%,nt,0%,nt,5%
COc1ccc(/C(N)=N/OC(=O)c2cccs2)cc1,nt,nt,-5%,-18%,nt,23%,nt,-63%
